# Assay outcomes as filed in PubChem BioAssay.
# Vaccinia mCherry: inhibitors of vaccinia virus infection (mCherry reporter signal) | Potency, µM (highest dose often 36.5 µM), inactives show at the highest dose activity change, negative = inhibition, actives largely listed as inhibitors | Vaccinia virus mCherry reporter infection, fluorescence; about a quarter of the inactives have no number | 310,000 compounds, 0.63% hits; active = well fitted inhibition curve with a large enough effect; inconclusive = small, poorly fitted or top-dose-only effect; inactive = no such curve, though single readings can be large or run the other way; tested in A549 cells; further: nearly all actives have a fitted effect of over 35% in size; inactives centre near -10
# VACV Venus inh: vaccinia inhibition (Venus reporter); 330,000 compounds, 0.46% hits; Potency, µM (titrated, usually from 36.5 µM), for the others: at the top dose activity change, negative = inhibition, usual class: inhibitors; Vaccinia virus Venus reporter expression, fluorescence; AID 720580; active means well fitted inhibition curve with a large enough effect; inconclusive means small, poorly fitted or top-dose-only effect; inactive means no such curve, though single readings can be large or run the other way; tested in A549 cells; further: nearly all actives have a fitted effect of over 30% in size; inactives centre near -10
# The depositor's hits bear a star; i = inactive; u = inconclusive; x = no result given; & = joins results of further samples; [ ] = dose if it differs, or a comment. On the % scale 0 is the no-effect control and ±100 the full control effect; potency means the concentration at half of the fitted maximal effect.
# Preview, two compounds:
molecule	Vaccinia mCherry	VACV Venus inh
Cc1ccc(OCCCn2c(=O)sc3ccccc32)cc1	-15%	-11%
O=C(CN1c2ccccc2Sc2ccccc21)NNC(=S)Nc1ccc(Cl)cc1	-28%	-23%

# The list itself, repeating the preview:
molecule	Vaccinia mCherry	VACV Venus inh
Cc1ccc(OCCCn2c(=O)sc3ccccc32)cc1	-15%	-11%
O=C(CN1c2ccccc2Sc2ccccc21)NNC(=S)Nc1ccc(Cl)cc1	-28%	-23%
COc1ccc(-c2c(C)c3ccc(O)c(CN4CCN(C)CC4)c3oc2=O)cc1OC	-2%	-13%
Cc1cccc(C(=O)N2CCN(c3ccc(N4CCOCC4)nn3)CC2)c1	-26%	13%
COc1ccc(C(CNC(=O)CNC(=O)c2ccccc2Cl)N2CCCC2)cc1 (configuration not stated)	-21%	-7%
COc1cccc2c1cc1c(=O)n(CC(=O)N3CCN(c4cccc(C)c4C)CC3)nc(C)n12	-14%	-12%&-13%
CN(C)CCCNC(=O)/C=C/c1ccc2c(c1)OCO2	-2%	-12%
Cn1c(=O)c2c(nc(N3CCN(C(=O)c4ccco4)CC3)n2CCSc2ncccn2)n(C)c1=O	i	-9%
CCNC(=S)N(CCc1c(C)[nH]c2ccc(Cl)cc12)Cc1cccnc1	-14%	-28%
O=C(COC(=O)C1CCN(c2ccc(C(F)(F)F)cn2)CC1)Nc1ccc(Cl)cc1	-13%	-3%
O=C(Nc1ccc(C(=O)N2CCCCC2)cc1)C1CC1	-11%	-17%
Cc1ccc(NC(=O)COc2ccc(C(=O)c3ccccc3)cc2)c(O)c1	u	-6%
O=c1c2[nH]c3ccccc3c2ncn1CCN1CCOCC1	-14%	-5%
O=C(C[C@H]1C[C@H](C(=O)N2CCCCC2)[C@@]2(CCc3ccccc3)c3[nH]c4ccc(Cl)cc4c3CCN2C1=O)NCc1cccc(C(F)(F)F)c1	-36%	-29%
COc1ccc(OC)c(NC(=O)CSc2nnc(CNC(=O)c3cccs3)o2)c1	-15%	-2%
CCCN=C(N)/C(C(=O)OCC)=C(\O)c1ccc(OC)cc1	-12%	-17%
COc1cc(NC(=O)c2ccccc2)c(OC)cc1NC(=O)Cc1ccc(C)cc1	-11%	-9%
COc1ccc2c(c1)NC(C)(C)C=C2C	-18%	17%
N#CC1=C(N)Oc2c(O)cc3ccccc3c2C1c1ccsc1 (configuration not stated)	-20%	-11%
COc1ccc(C(=O)COC(=O)c2ccccn2)c(OC)c1	i	-9%
O=c1c(O)c(-c2ccccc2)oc2cccc(O)c12	i	0%
Cc1ccc(N2NC(=O)/C(=C/c3ccc(-c4ccc(Cl)c(C(=O)O)c4)o3)C2=O)cc1	-13%	-20%
Cc1ccc(-c2cc(C(F)F)n3ncc(C(=O)N4CCCCC4c4cccnc4)c3n2)cc1 (configuration not stated)	22%	-3%
C[C@@H]1NC(=O)[C@H](CC(N)=O)NC(=O)c2cc([N+](=O)[O-])cc(I)c2OCC[C@@H](C(=O)NC(CC(=O)O)C(N)=O)NC1=O (some centres not stated)	-1%	-6%
COC(=O)[C@@H](NC(=O)NC(C)CCc1ccccc1)C(C)C (some centres not stated)	x	-7%

molecule	Vaccinia mCherry	VACV Venus inh
CCN(CC(=O)N1CCN(C)CC1)S(=O)(=O)c1ccc(Cl)cc1	x	-37%
CC(C)(C)c1ccc(NC(=O)CSc2nnc(-c3n[nH]c4ccccc34)o2)cc1	u	u
CCc1nnc(NC(=O)c2cc([N+](=O)[O-])ccc2N2CCOCC2)s1	i	-4%
O=C(NNc1ccccc1)c1sc2ccccc2c1Cl	-12%	-18%
CCOc1ccc(N2C(=O)CC(N)C2=O)cc1 (configuration not stated)	x	2%
Cc1cc(C)cc(N(C(=O)c2ccccn2)C(C(=O)NC2CCCCC2)c2cccs2)c1 (configuration not stated)	-2%	-26%
C[C@@H]1O[C@@H](O[C@@H]2C=C3CC[C@@H]4[C@@H](CC[C@]5(C)[C@H](c6ccc(=O)oc6)CC[C@@]45O)[C@@]3(C)CC2)[C@H](O)[C@H](O)[C@H]1O	10µM*	6.3µM*
Cc1cc(-c2cc(NC=O)c3ncc(-c4cccc(C(=O)NCCN(C)C)c4)n3c2)cc(C)c1O	8%	-2%
COc1ccccc1C(=O)NC(=O)COC(=O)CN1C(=O)NC(C)(C)C1=O	-1%	-18%
CCc1nc2ccccc2n1CCCCOc1ccccc1C	-6%	-9%
Cc1ccccc1NC(=O)C(=O)NCC1CCCN1S(=O)(=O)c1cccs1 (configuration not stated)	-16%	-17%
COc1ccc(-c2csc(NCCc3nc4cc(C(=O)NCCCO)ccc4n3Cc3ccc(C)cc3)n2)cc1	u	-19%
O=C1CC2(CCN(C(=O)c3c(F)cccc3F)CC2)Oc2ccccc21	-14%	-13%
O=C(COC(=O)C1(c2ccccc2F)CCCC1)NCc1cccs1	-5%	-4%
CC(=O)Nc1ccc(S(=O)(=O)Nc2nccc(/C=C/c3ccccc3F)n2)cc1	-2%	-4%
CC12CN3CC(C)(CN(C1)C3c1ccc(Cl)cc1Cl)C2=O (configuration not stated)	5%	-1%
Cc1ccc(S(=O)(=O)N2CCOCC2)cc1NC(=O)COC(=O)c1ccc2c(c1)OCO2	-9%	-18%
COc1ccc(S(=O)(=O)N2CCN(Cc3nc4ccc(C)cc4o3)CC2)cc1	-11%	2%
CCOC(=O)C1CCCN(C2=NC(=O)/C(=C/c3ccc(O)c(OCC)c3)S2)C1 (configuration not stated)	-17%	-5%
N#C/C=C/N1CCC(Cc2ccccc2)CC1	i	-9%
Clc1ccc(CN2CCN(c3ncccn3)CC2)cc1	-2%	-15%
C=CC(C1=CC(=O)C=CC1=O)c1ccccc1 (configuration not stated)	-4%	-26%
O=C1C2CCCN2C(=O)N1CCCN1CCN(c2ccc([N+](=O)[O-])cc2)CC1 (configuration not stated)	-18%	-8%
COc1ccc(OC)c(C2=NOC(C(=O)NCc3ccccn3)C2)c1 (configuration not stated)	-12%	-4%
CS(=O)(=O)N(CC(O)CON=C1c2ccccc2-c2ccccc21)c1ccc(F)cc1 (configuration not stated)	-16%	-27%

molecule	Vaccinia mCherry	VACV Venus inh
CCCc1cc(C(=O)NNC(=S)NC2CCCCC2)cs1	-12%	-15%
O=C(CSc1nnc2ccccn12)NCc1cccs1	x	-11%
Cc1cc(C)n2c(NCc3ccccc3)c(CCc3ccccc3)nc2n1	-9%	3%
Cc1cccc(CNC(=O)CCn2c(=O)c3cccn3c3ccc(F)cc32)c1	-9%	-9%
CCOC(=O)c1c(NC(=O)COC)sc(C)c1C	x	-7%
CCCCc1nnc(NC(=O)c2ccc3c(=O)n4c(nc3c2)CCC4)s1	-7%	6%
COc1cc(/C=N/NC(=O)c2ccoc2C)ccc1O	-17%	0%
COc1cccc(/C=N/N2CCOCC2)c1O	-6%	-12%
CC(=O)Nc1ccc(S(=O)(=O)Nc2cc(C)cn(Cc3ccccc3)c2=O)cc1	1%	-6%
CN1C(=O)C2C[C@@]3(Br)c4ccccc4N(OOSc4ccccc4)[C@H]3N2C(=O)[C@@H]1Cc1ccccc1 (some centres not stated)	-6%	-21%
O=C(CCN1C(=O)C2CC=CCC2C1=O)Nc1cc(C(F)(F)F)ccc1N1CCCC1 (configuration not stated)	-14%	-8%
CCOC(=O)C1=CCC(c2ccccc2C(F)(F)F)N(S(=O)(=O)c2ccc(C)cc2)C1 (configuration not stated)	10%	-7%
CC(C)CN(C(=O)COC(=O)C(C)N1C(=O)c2ccccc2C1=O)c1c(N)n(Cc2ccccc2)c(=O)[nH]c1=O (configuration not stated)	i	-10%
COc1ccc(Cl)cc1NC(=S)NNC(=O)C1(C)CC1(Cl)Cl (configuration not stated)	-5%	-20%
C=CCO/N=C(\C)c1c(O)c(C)c(-c2ccccc2)n(-c2ccccc2)c1=O	-8%	-15%
O=C(CN1C(=O)C2CC=CCC2C1=O)NCC(=O)Nc1ccc(F)c(F)c1F (configuration not stated)	-3%	-11%
Cc1ccc2c(c1)NC(=O)C(N1CCOCC1)(C(F)(F)F)O2 (configuration not stated)	-11%	-6%
COc1ccc(CCNC(=O)CCSc2nc(-c3ccco3)cc(C(F)(F)F)n2)cc1OC	x	-17%
CCNc1ccccc1C(=O)O	2%	7%
COC(=O)Nc1nc(-c2cc(Cl)ccc2Cl)cs1	-9%	-4%
CCCCC[C@@H](C)N1C[C@@H](COCc2ccccc2)Oc2cc(N3CCC[C@H]3CO)ccc2S1(=O)=O	9%	-7%
O=C(CCNS(=O)(=O)c1ccc(Br)s1)NCc1ccc(F)cc1	-5%	-5%
O=C(COC(=O)c1ccc[nH]c1=O)NCCc1ccc(F)cc1	-4%	-6%
Cc1cccc(CC(=O)Nc2c(C(=O)Nc3cccc(F)c3)oc3ccccc23)c1	-4%	2%
O=C(/C=C/c1c(Cl)cccc1Cl)NCc1ccco1	-3%	-28%

molecule	Vaccinia mCherry	VACV Venus inh
Cc1c(NC(=O)CN2C(=O)NC(C)(c3ccc(OC(F)F)cc3)C2=O)c(=O)n(-c2ccccc2)n1C (configuration not stated)	-5%	-21%
CC(=O)Nc1cc(-c2cccc(C(=O)N(C)C)c2)cn2c(-c3ccc(F)c(Cl)c3)cnc12	21%	-14%
O=C(Nc1ccccc1F)NC1CC1	i	6%
COc1ccc(C)cc1NC(=O)c1ccoc1C	x	-9%
CCOc1ccc(NC2=NCCCS2)cc1	-5%	-9%
COC(=O)COc1ccc2oc(-c3ccc(OC)cc3)cc(=O)c2c1	-10%	-9%
CS(=O)(=O)Nc1ccccc1C(=O)NCC1(N2CCCCC2)CCCCC1	0%	-1%
O=C(COc1ncnc2sccc12)NC1CCCc2ccccc21 (configuration not stated)	-13%	-13%
C[C@H]1CN([C@@H](C)CO)C(=O)Cc2cc(NS(C)(=O)=O)ccc2O[C@@H]1CN(C)CC1CC1	-13%	-8%
O=C(CN1C2=NCCN2c2ccccc21)c1ccc2c(c1)OCO2	-25%	-22%
Nc1nc(=S)c2ncn(C3OC(CO)C(O)C3O)c2[nH]1 (configuration not stated)	-26%	-15%
Cc1ccc(NC(=O)COC(=O)C(CC(C)C)N2C(=O)C3CC=CCC3C2=O)c(C)c1 (configuration not stated)	-7%	5%
CCn1c(COc2ccccc2)nnc1SCC(=O)C(C)(C)C	x	-27%
COc1cc(NC(=O)C(=O)NNC(=O)C2CCCCC2)c(OC)cc1Cl	i	-14%
COc1ccccc1OCC(=O)NN1Cc2ccccc2C1=N	4%	1%
COc1ccc(S(=O)(=O)NCCc2cn3ccsc3n2)cc1	-11%	-10%
O=C(Nc1cccc(Cl)c1Cl)c1cc(S(=O)(=O)N2CCCCC2)ccc1F	-12%	-14%
O=[N+]([O-])c1ccc(Cl)c(Cl)c1Cl	-13%	-12%
CCOc1cccc(CN2CCC(Oc3ccc(C(=O)N4CCCC4)cc3)CC2)c1	i	-10%
COc1ccc(NC(=S)NCc2ccccc2)c(OC)c1	i	-13%
Fc1ccc(-c2nnc(CSc3nnc(-c4ccc5c(c4)OCO5)o3)o2)cc1	28µM*	u
CCCc1[nH]nc2c1C(c1ccc(OCCN3CCOCC3)c(OCC)c1)C(C#N)=C(N)O2 (configuration not stated)	-5%	-6%
O=C(O)C1CC(=O)N(c2ccc(OCc3ccccc3Cl)cc2)C1 (configuration not stated)	i	2%
CCc1cccc(NC(=O)CN2C(=O)NC3(CCCCCCC3)C2=O)c1	i	-20%
Cc1cccn2c(=O)c3cc(C(=O)NCc4ccco4)c(=N)n(CCOCCO)c3nc12	-9%	-7%

# Compound profiles, as listed above:
# Nc1nc(=S)c2ncn(C3OC(CO)C(O)C3O)c2[nH]1 (configuration not stated) across the screens: Vaccinia mCherry = -26%; VACV Venus inh = -15%
# COc1ccc(C)cc1NC(=O)c1ccoc1C across the screens: Vaccinia mCherry = x; VACV Venus inh = -9%
# CCn1c(COc2ccccc2)nnc1SCC(=O)C(C)(C)C across the screens: Vaccinia mCherry = x; VACV Venus inh = -27%

# Next section.
molecule	Vaccinia mCherry	VACV Venus inh
Cc1cc(C)c(CN2CCC(N3CCC(C(=O)NCC4CCCO4)CC3)CC2)cc1C (configuration not stated)	-18%[7.34 µM]	-4%[7.34 µM]
COc1cccc(CN2CCC3(CCC(CNC(=O)c4ccccc4)O3)CC2)c1 (configuration not stated)	-9%	-9%
c1ccc(NC(c2ccccc2)c2ccncc2)cc1 (configuration not stated)	-10%	-14%
COc1ccc(CNC(=O)c2cc3cccc(O)c3oc2=N)cc1	-18%	-2%
Cc1ccc2c(=O)cc(C(=O)Nc3ccc(S(=O)(=O)N4CCC(C)CC4)cc3)oc2c1C	-8%	-11%
Cc1ccc2sc(N(CCCN(C)C)C(=O)c3ccc(S(=O)(=O)N4CCc5ccccc5C4)cc3)nc2c1C	-6%	-17%
CCCCn1c(N)c(N(CCOC)C(=O)c2ccc3c(c2)OCCO3)c(=O)[nH]c1=O	-6%	-1%
COc1ccc(CCNC(=O)CCc2c(C)nc3c(c(C)nn3-c3ccc(C)cc3)c2C)c(OC)c1	-25%	-25%
CCOC(=O)c1cc(S(=O)(=O)NCCc2ccccc2)cn1C	-7%	-20%
